Screening results from PubChem.
PINK1 modulator = PINK1 expression modulation; PINK1 immunofluorescence, high-content cytometry, 24 h; Potency, µM (highest dose often 76.6 µM), for the others: at the top dose activation (PINK1 increase), actives largely listed as activators; 0.2% of 410,000 active; AID 624263; active = well fitted activation curve with a large enough effect; inconclusive = small, poorly fitted or top-dose-only effect; inactive = flat fitted curve, though single readings scatter; cell line not stated here;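 also: % of control where 0% means no effect; nearly all actives have a fitted effect of over 65% in size; a mitochondrial uncoupler was the plate control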
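A stable cell line was treated with compounds at 5 concentrations for 24 hours, with CCCP as control. PINK1 levels and mitochondrial localization were measured by immunofluorescence with mitochondrial, cell and nuclear markers after fixation, read by laser-scanning cytometry.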
The depositor's hits bear a star; ? = inconclusive. Potency is read from the fitted curve at half-maximal effect. Not all compounds are listed (hit frequency here may not be typical).

Preview:
no. | molecule | PINK1 modulator
1 | COc1ccc(/C=C(\C#N)c2nc(-c3cc4ccccc4oc3=O)cs2)cc1OC | -0.7%
2 | CCn1ccc2cc(S(=O)(=O)N3CCCN(C(=O)Nc4cccc(Cl)c4)CC3)ccc21 | -1.0%
3 | COc1ccc(-c2cc3ccc(O)c(CN4CCN(CCO)CC4)c3oc2=O)cc1OC | 1.5%
4 | Cc1cccc(Cn2cccc2CNS(=O)(=O)c2ccc(Br)cc2)c1 | 11%
5 | COc1ccc(CN2CCOc3ccc(CN4CCC(O)CC4)cc3C2)c(OC)c1OC | -0.6%

Main list, from the start:
no. | molecule | PINK1 modulator
1 | COc1ccc(/C=C(\C#N)c2nc(-c3cc4ccccc4oc3=O)cs2)cc1OC | -0.7%
2 | CCn1ccc2cc(S(=O)(=O)N3CCCN(C(=O)Nc4cccc(Cl)c4)CC3)ccc21 | -1.0%
3 | COc1ccc(-c2cc3ccc(O)c(CN4CCN(CCO)CC4)c3oc2=O)cc1OC | 1.5%
4 | Cc1cccc(Cn2cccc2CNS(=O)(=O)c2ccc(Br)cc2)c1 | 11%
5 | COc1ccc(CN2CCOc3ccc(CN4CCC(O)CC4)cc3C2)c(OC)c1OC | -0.6%
6 | Cc1ccc(S(=O)(=O)c2cn(CC(=O)Nc3ccc4c(c3)OCO4)c3ccc(C)cc3c2=O)cc1 | 1.2%
7 | Cc1oc(-c2ccccc2NC(=O)c2ccsc2)nc1CN(C)CC1CC=CCC1 (stereo unspecified) | 0.5%
8 | CCc1c(C)sc(NC(=O)c2cc3nc(-c4ccc(OC)cc4)cc(C(F)(F)F)n3n2)c1C(=O)OC | 0.2%
9 | CCc1ccc(-c2nc(CSCC(=O)NCc3ccc(C)cc3)c(C)o2)cc1 | 1.7%
10 | CCCCOC(=O)c1ccc(NC(=O)Cc2coc3c(C)c(C)ccc23)cc1 | 10.0%
11 | Cc1ccc(NC(=O)CSc2nc3nccnc3c(=O)n2CCc2c[nH]c3ccccc23)cc1C | 0.8%
12 | CC(C)(C)C1CCc2c(sc(NC(=O)c3cc4ccccc4c(=O)o3)c2C(N)=O)C1 (stereo unspecified) | 1.6%
13 | O=C(NCCN1CCCCC1)c1ccc(Cn2c(SCc3ccc(F)cc3)nc3cccnc32)cc1 | 1.4%
14 | COc1cc2c(NC3CCN(C)CC3)nc(N3CCCN(C)CC3)nc2cc1OCCOCCN(C)C | -0.3%
15 | Cc1ccc(CCNC(=O)c2ccc(CNS(=O)(=O)c3ccccc3)cc2)cc1 | 2.0%
16 | CCc1ccc(S(=O)(=O)c2cn(C)c3cc(N4CCCCC4C)c(F)cc3c2=O)cc1 (stereo unspecified) | -0.8%
17 | Cc1ccc(C)c(CN2C(=O)c3ccccc3S(=O)c3ccc(C(=O)NCc4ccco4)cc32)c1 (stereo unspecified) | 1.3%
18 | CCOc1ccccc1C1CC(=O)Nc2c1c(=O)n(C)c1ncnn21 (stereo unspecified) | -0.2%
19 | Cc1c(C2(c3cc(C(C)C)c(O)c(Br)c3C)OS(=O)(=O)c3ccccc32)cc(C(C)C)c(O)c1Br | -0.1%
20 | CC(C)C(=O)Nc1nnc(S(=O)(=O)N(C)Cc2ccc(F)cc2)s1 | 0.9%
21 | COC(=O)c1ccccc1-c1cc(C)cc2c1OC(CNC(=O)c1ccn(C)n1)C2 (stereo unspecified) | 0.5%
22 | CCCCSCCCNC(=O)c1cn(CC)c2ccc(S(=O)(=O)N3CCCCCC3)cc2c1=O | 1.2%
23 | COc1ccc(-c2cc(=O)oc3c4c(ccc23)OCN(Cc2ccccc2)C4)cc1 | -0.3%
24 | CCOC(=O)c1cccc(NS(=O)(=O)c2ccc3[nH]c4c(c3c2)CCCC4)c1 | 26%
25 | COCCNC(=O)CCCn1c(SCC(=O)Nc2cccc(C)c2)nc2c(sc3ccccc32)c1=O | 3.0%
26 | O=Cc1ccc(N2CCN(S(=O)(=O)c3ccc4c(c3)CC(=O)N4)CC2)cc1 | 0.3%
27 | CCC(CC)C(=O)Nc1ccc2nc(SCC(=O)N3CCc4ccccc43)sc2c1 | -0.4%
28 | CSc1ccc(C2c3c(oc4ccccc4c3=O)C(=O)N2CCCN2CCOCC2)cc1 (stereo unspecified) | -1.4%
29 | COc1cccc(NS(=O)(=O)c2ccc3[nH]cc(C(=O)N4CCCC4)c(=O)c3c2)c1 | -0.8%
30 | Cc1cccc(OCCCn2c(CCNC(=O)C(C)(C)C)nc3ccccc32)c1 | 2.6%
31 | CN(C(=O)CSc1nncn2c1cc1occc12)c1ccccc1 | -2.0%
32 | COc1cc(Nc2nc3ccccc3c3nnc(C)n23)cc(OC)c1 | 0.0%
33 | CCc1nnc2c3ccccc3nc(Nc3ccc(F)c(Cl)c3)n12 | 0.7%
34 | CC(C)C(=O)Nc1cccc(C(=O)Nc2nnc(CC(C)(C)C)s2)c1 | 2.4%
35 | Oc1ccc(Cl)cc1C1C=C(c2ccc3c(c2)OCO3)NC(c2ccc(Br)cc2)N1 (stereo unspecified) | -0.1%
36 | CCSc1nnc(NC(=O)C2CCN(C(=O)c3ccco3)CC2)s1 | -0.7%
37 | CCN1CCCC1CNC(=O)c1cnn(-c2ncc3c(n2)-c2ccc(OC)cc2CC3)c1C1CC1 (stereo unspecified) | -0.3%
38 | Cc1cccc(C)c1Nc1c(-c2ccccc2Cl)nc2cnccn12 | 0.3%
39 | Cc1cccc(Cn2c(CN3CCC(C(=O)NCc4ccccc4Cl)CC3)cc3ccccc32)c1 | -0.1%
40 | CCC(=O)N1CCc2cc(S(=O)(=O)N3CCN(c4ccccc4F)CC3)ccc21 | 1.8%
41 | O=C(Nc1ccc(Cl)c(Cl)c1)N(Cc1c[nH]c2ccccc12)C1CCCCC1 | 7.7%
42 | COc1ccccc1-n1cc(CN2CCC3(CCC(CNC(=O)c4ccccc4)O3)CC2)cn1 (stereo unspecified) | 0.7%
43 | CCC1CN(C(=O)Nc2cc(OC)cc(OC)c2)c2ccccc2S1 (stereo unspecified) | 3.0%
44 | CC(=O)c1ccc(NC(=O)CN2C(=O)CN(C)C(=O)c3ccccc32)cc1 | 2.9%
45 | CN(C)c1ccc(-c2nnc(SCC(=O)NCc3ccco3)n2C)cc1 | -0.7%
46 | Cc1ccc(-n2ncc(C(=O)N3CCN(Cc4ccccc4)CC3)c2C2CCN(C(=O)OC(C)(C)C)CC2)c(C)c1 | 0.4%
47 | O=C(NCc1ccc(Cl)cc1)C1CCN(S(=O)(=O)Cc2ccccc2)CC1 | 3.6%
48 | CCOc1ccc(-n2c(SCC(=O)Nc3ccc(CC)cc3)nc3c(oc4ccccc43)c2=O)cc1 | 2.3%
49 | CC1(C)CC(=O)c2cc(-c3nc(-c4ccc(Br)cc4)cs3)c(=O)n(-c3ccccc3)c2C1 | 1.8%
50 | O=C(NCc1nc2cccnc2n1Cc1ccc(F)cc1)c1ccccc1C(F)(F)F | -0.1%

Further structures.
no. | molecule | PINK1 modulator
51 | CCc1cccc(C)c1NS(=O)(=O)c1c(C(=O)N2CCCCCC2)c(C)n(C)c1C | -0.4%
52 | CCc1ccc2[nH]c(=O)c(CN(Cc3cccs3)Cc3nnnn3Cc3ccccc3)cc2c1 | -0.8%
53 | COCCCNC(=O)c1ccc2c(c1)N(Cc1ccccc1F)C(=O)c1ccccc1S2=O (stereo unspecified) | 2.7%
54 | Cc1ccc(CCNC(=O)Cn2ncc3c(=O)oc4ccccc4c32)cc1 | 1.7%
55 | Cc1ccc(NC(=O)c2oc3ccccc3c2NC(=O)C23CC4CC(CC(C4)C2)C3)cc1 | 2.9%
56 | O=S(=O)(NCCc1nnc2ccc(SCc3ccc(C(F)(F)F)cc3)nn12)c1ccccc1 | -0.9%
57 | O=C(Nc1cccc(C(=O)N2CCN(c3ccc(Cl)cc3)CC2)c1)c1nsc2ccccc12 | -0.9%
58 | Cc1ccc(Cl)cc1N1CCN(C(=O)c2nn(C)c3c2CS(=O)(=O)c2ccccc2-3)CC1 | 0.2%
59 | CCCn1c(=O)c2sccc2n2c(CCCC(=O)NC3CCCCC3)nnc12 | 0.2%
60 | CCCCC(CC)CNC(=O)Cc1ccc(-n2c(=O)[nH]c3ccccc3c2=O)cc1 (stereo unspecified) | 0.2%
61 | Cc1cc2c(cc1S(=O)(=O)N(C)CC(=O)Nc1ccc(C#N)cc1)OCC(=O)N2 | 0.5%
62 | COc1ccc(-c2noc(CC(=O)Nc3cc(OC)ccc3OC)n2)cc1 | 1.5%
63 | CCC1(C2CCN(C(=O)c3ccccc3C(C)=O)CC2)NC(=O)N(CCc2scnc2C)C1=O (stereo unspecified) | 0.1%
64 | Cc1cccc(NC(=O)CSc2nc3ccccc3nc2N2CCCCC2)c1C | 2.0%
65 | Cc1ccc(NC(=O)CN2CCSc3ccc(S(=O)(=O)N4CCCC4)cc32)cc1C | 1.6%
66 | CCc1c(-c2ccccc2)nc2ccccc2c1C(=O)NCc1ccc(C)cc1 | 1.5%
67 | CCOC(=O)c1c(S(=O)(=O)NCC(=O)Nc2ccc(C(C)=O)cc2)c(C)n(C)c1C | 1.1%
68 | Cc1cccc(C)c1NC(=O)CSc1ncc2c(n1)-c1ccc(Cl)cc1N(Cc1ccccc1)S2(=O)=O | 0.8%
69 | O=C1CN(C(=O)Cc2ccc(F)cc2)C(c2ccccc2)c2cc(Cl)ccc2N1 (stereo unspecified) | 0.9%
70 | CCOc1ccc(N2CC(c3nc4ccccc4n3CCCCOc3ccc(OC)cc3)CC2=O)cc1 (stereo unspecified) | -2.0%
71 | CCn1nc(C)c2c(-c3ccccc3)cc(=O)n(C(C)C(=O)NCc3ccccc3OC)c21 (stereo unspecified) | ?
72 | Cn1c(=O)c2c(-c3ccccc3)n3c(c2n(C)c1=O)C(c1cccc([N+](=O)[O-])c1)Nc1ccccc1-3 (stereo unspecified) | 0.7%
73 | O=C(NCC12CC3CC(CC(C3)C1)C2)c1cc2nc(-c3ccccc3)cc(C(F)(F)F)n2n1 | 1.7%
74 | O=C(Nc1ccccc1C(=O)OCc1cc(=O)n2nc(C3CC3)sc2n1)c1cccc(F)c1 | -0.6%
75 | O=C(CSc1nc2c([nH]c3ccccc32)c(=O)n1-c1ccccc1)NCc1ccc(F)cc1 | 3.6%
76 | CC1CCN(C(=O)Cn2c(SCC(=O)Nc3ccc(F)cc3)nc3ccccc32)CC1 | -0.3%
77 | CCN(CC)C(=O)c1c(NC(=O)c2cccc(C)c2)sc2c1CCC(C)C2 (stereo unspecified) | 3.2%
78 | CCc1cccc(NC(=O)c2ccc(CN3C(=O)C(C)=C(c4ccc(OC)cc4)S3(=O)=O)cc2)c1 | 3.5%
79 | CCc1ccc(S(=O)(=O)c2c(C(=O)c3ccc(C)c(C)c3)cnc3ccccc23)cc1 | 4.0%
80 | CCOc1ccc(-c2nonc2NC(=O)c2oc3ccc(F)cc3c2C)cc1 | 9.4%

Rewritten field by field: entries from further up
72) Cn1c(=O)c2c(-c3ccccc3)n3c(c2n(C)c1=O)C(c1cccc([N+](=O)[O-])c1)Nc1ccccc1-3 (stereo unspecified)
  PINK1 modulator: 0.7%
73) O=C(NCC12CC3CC(CC(C3)C1)C2)c1cc2nc(-c3ccccc3)cc(C(F)(F)F)n2n1
  PINK1 modulator: 1.7%

Later entries.
no. | molecule | PINK1 modulator
81 | O=C(/C=C/c1ccc(F)cc1)NCC1Cc2cccc(-c3ncccn3)c2O1 (stereo unspecified) | 1.4%
82 | CCOC(=O)c1ccccc1NC(=O)N1CCOc2ccc(Cl)cc21 | 0.5%
83 | CCc1ccc(NC(=O)CSc2nnc(-c3cc4occc4n3C)n2-c2ccccc2C)cc1 | 1.2%
84 | O=C(Nc1cccc(F)c1)[C@@H](c1ccccc1)N1Cc2ccccc2C1=O | -0.5%
85 | Cc1ccc(C(=O)NCC(=O)OCc2cc(=O)n3c(C)csc3n2)cc1 | 0.8%
86 | O=C(c1ccc2c(c1)N(Cc1ccc(F)cc1)C(=O)c1ccccc1S2=O)N1CCOCC1 (stereo unspecified) | 1.7%
87 | CCn1c(C(=O)NCc2ccc(F)cc2)cc2oc3ccccc3c21 | -1.2%
88 | Cc1cccc(C(=O)N2c3nc(-c4ccco4)nn3C3(CCCCC3)[C@@H]3CCCC[C@@H]32)c1 | 4.7%
89 | CC(C)N1C[C@@H](Sc2ccccn2)C[C@H]1C(=O)Nc1ccc2c(c1)Nc1ccccc1CC2 | 0.5%
90 | COc1ccccc1N1CCN(C(CNC(=O)C(=O)NCCCN(C)C)c2cccnc2)CC1 (stereo unspecified) | -1.8%
91 | Cc1ccc2c(=O)cc(C(=O)Nc3sc4c(c3C(=O)NCC3CCCO3)CCCC4)oc2c1C (stereo unspecified) | 5.0%
92 | Cc1oc2ccc(O)c(CN(C)Cc3ccccc3)c2c1C(=O)Nc1cccc(C(F)(F)F)c1 | ?
93 | COc1ccccc1NC(=O)C1=C(C)Nc2nnnn2C1c1ccc(C(F)(F)F)cc1 (stereo unspecified) | 8.2%
94 | O=C(O)c1cc(-c2ccccc2)nn1Cc1ccccc1 | 3.0%
95 | CCC(=O)Nc1cc(-c2cn3cccnc3n2)ccc1OC | 0.2%
96 | COc1ccc(CNC(=O)c2ccc(NC(=O)N3CCSc4ncccc43)cc2)c(OC)c1 | -0.1%
97 | COc1ccc(-c2ccc(NS(=O)(=O)c3cc(C)c(C)cc3C)cc2)nn1 | 4.8%
98 | Cc1cccc(-c2cc(NC(=O)C(C)(C)C)n(-c3ccccc3)n2)c1 | 2.2%
99 | CN(C)c1ccc(/C=C/c2ccnc3ccc(N)cc23)cc1 | 8.0%
100 | COc1cccc(/C=C/c2nc(C#N)c(N(C)Cc3ccccc3)o2)c1 | -0.8%
101 | COc1cccc(N2CC(NC(=O)Cc3cccs3)CC2=O)c1 (stereo unspecified) | 1.8%
102 | Cc1ccc(/C=C/C(=O)Nc2ccc3nc(N4CCC(C)CC4)cc(C)c3c2)cc1 | -1.0%
